Anaer choline gr – growth inhibitors of anaerobic choline-fed gram-negatives, minimal medium, absorbance | Gram-negative bacterium anaerobic choline minimal medium; hits give low values; many inactives read as strong as hits in the columns shown | calls only | 0.2% of 55,000 active;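 active = growth z-score on choline under -2 at 7 or 20 h with little or no fall on glycerol, limits in tiers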;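 also: stock transfer was 300 nL into about 50 µL; the organism is E. coli; final concentration not given here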
Anaer choline gr early – second read-out of Anaer choline gr, no call of its own (marks repeat the call); z-score; measured here: choline growth z-score, timepoint 1;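 score of optical density at 7 h as mean of two plates; lower means less growth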
* hit, by the source's call; i = inactive; & = joins results of further samples.

SMILES	Anaer choline gr	Anaer choline gr early
Cc1ccc(Cc2nc(CCNC(=O)Nc3cc(F)ccc3F)n[nH]2)cc1	i	0.3
Cc1noc2c1C(c1ccc(Br)c(F)c1)C1=C(CC(c3ccccc3O)CC1=O)N2 (stereo not given)	i	-1.1
Cc1ccc2[nH]c3c(=O)n(CC(=O)O)cnc3c2c1	i	0.51
Cc1cccc(CCN2CCC(C(=O)c3ccc(NS(C)(=O)=O)cc3)CC2)n1	i	0.23&0.26
O=C(Nc1ccccc1F)C1CC(=O)N(c2ccc3c(c2)CCN3C(=O)C2CCC2)C1 (stereo not given)	i	1.6
COc1ccc(OC)c(NC(=O)c2cc(-c3cccnc3)on2)c1	i	0.63
CCS(=O)(=O)c1nc2ccc(NS(=O)(=O)c3cccc(Cl)c3)cc2s1	i	0.17
Cc1nn(-c2ccccc2)c(N2CCC(C(=O)N3CCCC3)CC2)c1-n1c(C)ccc1C	i	0.35
O=C(CN1CCSc2ccccc21)N1CCN(c2ccc(Cl)cc2)CC1	i	0.25
Cn1c(=O)oc2cc(-c3noc(-c4cc(F)ccc4F)n3)ccc21	i	0.13
CCCN1CCN(c2ccc(NC(=O)c3ccccc3Cl)c(C(=O)O)c2)CC1	i	0.01
O=C(Nc1ccccc1Br)N1CCN(C(=O)c2nsc3ccccc23)CC1	i	-0.07
Cc1ccc(-c2noc(C(=O)N3CCCC3)n2)cc1S(=O)(=O)N1CCN(c2ccccc2)CC1	i	-2.4
CCCCN(CC)CCNC(=O)C1CCCN1c1nnc(N2CCCC2=O)s1 (stereo not given)	i	0.65
CC(C)Oc1ccc(C(=O)Nc2cccc(N3CCCS3(=O)=O)c2)cc1	i	-0.93
COc1ccc(C(CNC(=O)c2cc(-c3ccc4c(c3)OCCO4)on2)N2CCOCC2)cc1 (stereo not given)	i	0.68
c1cc2c(cc1-c1noc(C3CCC3)n1)ncn2CCN1CCCC1	i	-1.6
Cn1cccc1Cc1nnc(SCC(=O)NCC2CCCO2)n1Cc1ccccc1 (stereo not given)	i	-0.52
CCCn1cnc2nc(CSc3ccccc3NC(=O)Nc3ccc(F)c(Cl)c3)cc(=O)n21	i	1.7
Cc1ccc(OC(=O)c2cc(-c3ccc4c(c3)OCCO4)on2)c(C)c1	i	0.92
O=C(CCc1nnc(C(=O)Nc2ccccc2)s1)NCCCN1CCC(N2CCCCC2)CC1	i	-1.9
COc1ccc(CNC2=NCCNC23CCOCC3)cc1	i	-0.16
c1cncc(CSc2nc3ccccc3[nH]2)c1	i	-0.55
COc1ccc(CCNC(=O)CN2C(=O)CCS(=O)c3ccccc32)cc1OC (stereo not given)	i	0.08
Cc1cc(C)cc(NC(=O)Cn2cc(-c3nc(-c4cccc(F)c4)no3)c(=O)c3ccc(C)nc32)c1	i	0.32

Additional compounds follow.
SMILES	Anaer choline gr	Anaer choline gr early
CC(C)Cc1nnc(NC(=O)c2cc(=O)c3cc(F)ccc3o2)s1	i	-1.4
O=C(CSc1nc(N2CCc3ccccc3C2)nc2ccccc12)Nc1ccc2c(c1)OCO2	i	-0.12
O=C(Cn1nc2c3ccccc3ncn2c1=O)NC1CCCC1	i	-0.18
Cc1ccc(S(=O)(=O)Nc2cccc(-c3cn4cccc(C)c4n3)c2)cc1	i	1.1
CC(C)n1nnc2cc(S(=O)(=O)N3CCCC(C(=O)N4CCc5ccccc54)C3)ccc21 (stereo not given)	i	0.62
Cc1ccc(NC(=O)N2CCN(S(=O)(=O)c3cc4c(cc3Cl)NC(=O)C(C)O4)CC2)cc1C (stereo not given)	i	0.15
COc1ccccc1C1(O)CCN(CCCn2c3ccccc3c3ccccc32)CC1	i	-3.2
COc1ccccc1NC(=O)N1CCN(c2nc3cc(F)ccc3n3cccc23)CC1	i	-0.81
CC(C)C(=O)Nc1ccccc1SCc1cc(=O)n2c(ncn2C(C)C)n1	i	-0.62
CCC(=O)N1CCc2cc(Br)c(S(=O)(=O)NCCCN3CCc4ccccc4C3)cc21	i	0.2
Cc1[nH]c(C(=O)N2CCN(c3ccccc3F)CC2)c(C)c1S(=O)(=O)N1CCCC1	i	-0.19
COc1cc(C(=O)C2CC(=O)Nc3n[nH]c(-c4ccc(Cl)cc4)c32)ccc1F (stereo not given)	i	0
COc1cccc(N2C(=O)c3cc4ccsc4n3CC2(C)C(=O)NCc2ccccc2OC)c1 (stereo not given)	i	0.73
O=C(CCC(=O)N1CCN(C(c2ccccc2)c2ccccc2)CC1)Nc1noc2ccccc12	i	0.84
O=S(=O)(c1ccc2c(c1)OCCO2)N1CCCC1c1ccccc1Cl (stereo not given)	i	0.32
COc1ccc(C(C)(O)C(CN2CCOCC2)c2ccccc2)cc1 (stereo not given)	i	-1.7
Cc1csc(-c2cc(S(=O)(=O)NC(C)C)cn2CC(=O)N2CCCCC2)n1	i	-0.18
O=S(=O)(c1ccc(-c2noc(-c3ccc4c(c3)OCO4)n2)cc1)N1CCCC1	i	-0.56
O=C1CCS(=O)(=O)N1c1ccc(S(=O)(=O)NC2CCCC2)cc1	i	-0.93
O=C1CCc2cc(S(=O)(=O)NCc3ccc(Cl)cc3)cc3c2N1CCC3	i	0.63
CC(C)c1cc(C2CCCN2C(=O)C2CC2)no1 (stereo not given)	i	0.28
CNC(=O)c1ccc(CN2C(=O)C(C)=C(c3ccc(C)c(C)c3)S2(=O)=O)cc1	i	-0.97
C=CCn1c(=O)c2cnc(-c3ccc(Cl)cc3)nc2n(C)c1=O	i	-0.18
Cc1nc(-c2cc(S(=O)(=O)NC3CCCCC3)c(C)s2)sc1C	i	0.38
CCc1ccc(Cn2nnc(C(=O)O)c2C(=O)O)cc1	i	0.06

(list continues)
SMILES	Anaer choline gr	Anaer choline gr early
Cc1cc2nc(-c3cccc(Br)c3)cc(C(F)(F)F)n2n1	i	0.62
CN(C)c1nc2n(c(=O)c1Cc1ccccc1)CCCS2	i	0.22
COCCNc1nc2ccc(Cl)cc2nc1-n1nc(C)cc1C	i	1.6
CC1CCN(c2nc3ncnc(SCC(=O)NC4CCCC4)c3s2)CC1	i	0.75
COc1ccc(C2c3[nH]c4ccc(Cl)cc4c3CCN2C(=O)Nc2cc(OC)ccc2OC)cc1 (stereo not given)	i	0.4
Cc1c(-c2nc(-c3ccccc3)no2)nnn1-c1cc(F)ccc1F	i	1.7
Cc1cccc(C(=O)N2CCN(Cc3noc4ccccc34)CC2)c1	i	0.09
COc1ccccc1-c1cc(C(F)(F)F)n2ncc(C(=O)N3CCCC3c3cc(C)on3)c2n1 (stereo not given)	i	0.76
CCCSc1nc2c(c(=O)[nH]1)C(c1sccc1C)C(C(=O)OC(C)C)=C(C)N2 (stereo not given)	i	0.43
COc1ccc2sc(N(Cc3cccnc3)C(=O)c3ccc4c(c3)OCCO4)nc2c1	i	1.1
O=c1ccc(S(=O)(=O)c2ccc(Br)cc2)n[nH]1	i	-0.56
O=C(NCc1ccc(Br)cc1)c1ccc(-c2nccc(Oc3ccccc3)n2)cc1	i	-0.72
c1ccc(CCc2nc(-c3ccc(-c4csc(C5CC5)n4)cc3)no2)cc1	i	0.95
CCc1nc(-c2cc(S(=O)(=O)NCC(=O)N3CCN(c4ccc(F)cc4)CC3)c(C)s2)no1	i	-0.92
CCc1nnc(-c2coc(S(=O)(=O)N3CCC(N4CCCCC4)CC3)c2)o1	i	-2.4
C=CCOc1ccc(C(=O)Nc2onc3c2CCCC3)cc1	i	0.02
O=C(Cn1nc2n(Cc3ccccc3)c(=O)c3ccccc3n2c1=O)NCc1ccccc1Cl	i	0.69
CCn1c(=O)c(N2CCC(C(=O)NCCc3c[nH]c4ccc(Cl)cc34)CC2)nc2ccccc21	i	0.44
Cc1ccc(Nc2nncc(=O)[nH]2)cc1Cl	i	-1
Cc1[nH]nc2c1C(c1cccc(F)c1)N(c1ccc(Br)cc1)C2=O (stereo not given)	i	0.06
CCC(C)N1CC(=O)N(c2ccc(C(C)C)cc2)[C@@H]2CS(=O)(=O)C[C@@H]21 (stereo not given in full)	i	-0.36
Cc1ccc(-c2noc(-c3ccccc3S(=O)(=O)N3CC=C(c4ccccc4)CC3)n2)cc1	i	-0.25
O=C(Nc1cccc(Cl)c1)N1CCN(C(=O)c2nsc3ccccc23)CC1	i	0.43
COc1ccc(OC)c(CNC(=O)c2cc(C)nc3c2c(=O)n(C)c(=O)n3C)c1	i	-0.09
CCOC(=O)CSc1nc2nc[nH]c2c(=O)[nH]1	i	-0.93

(continued)
SMILES	Anaer choline gr	Anaer choline gr early
CCC(C)NC(=O)C1CCN(S(=O)(=O)c2cn(CC)cn2)CC1 (stereo not given)	i	-0.7
OCCNCc1ccc(-c2cc(Cl)ccc2Cl)o1	i	-3.2
O=c1[nH]ccn(-c2cccc(Cl)c2)c1=O	i	-0.33
CCOc1ccc(OCC)c(Nc2nc3ccccc3c3nnc(CC)n23)c1	i	-0.46
Cc1c(C)n(-c2ccccc2Cl)c2ncn3nc(CSc4nc5ccccc5o4)nc3c12	i	0.29
COc1ccc(C2C=C(c3ccc(Br)cc3)Nc3nc(N4C(=O)CCC4=O)nn32)cc1 (stereo not given)	i	0.7
CCn1c2c(=O)[nH]c(=O)n(C)c2n2c(-c3ccc(COc4ccccc4)cc3)nnc12	i	0.64
CCCCN(C)C(=O)CCn1c(=S)[nH]c2c(oc3ccccc32)c1=O	i	-0.47
CC(C)CNC(=O)c1n[nH]c2c1CCCCCC2	i	1.3
COc1ccc(NC(=O)Nc2ccc3[nH]c(=O)oc3c2)cc1OC	i	0.3
Cn1c(=O)n(C)c2cc(NS(=O)(=O)c3ccccc3)c(Cl)cc21	i	-0.66
COc1cccc(CNC(=O)C2CCN(c3ncccc3-c3nc(-c4cccc(C)c4)no3)CC2)c1	i	1.4
CCOc1ccc(Oc2cc3c(cc2N)n(C)c(=O)c(=O)n3C)cc1	i	0.49
COc1cccc(C(Nc2ccccn2)c2cc(C)sc2NC(=O)c2ccccc2)c1 (stereo not given)	i	0.39
Cc1ccc2c(c1)C=C(C(=O)Nc1cc(C)ccc1C)C=CO2	i	0.64
CC1CN(C(=O)C2CC2)c2cc(S(=O)(=O)Nc3ccc(S(N)(=O)=O)cc3)ccc2S1 (stereo not given)	i	-0.45
CCC(C)NC(=O)C1CCN(c2c(NC(C)=O)c(C)nn2-c2ccccc2)CC1 (stereo not given)	i	-0.15
CC1CCN(C(=O)c2ccccc2NC(=O)c2cccc(S(=O)(=O)N3CCCC3)c2)CC1	i	0.44
COc1ccc(OC)c(S(=O)(=O)N2CCn3cccc3C2c2ccc(F)c(F)c2)c1 (stereo not given)	i	0.51
CN(C)c1ccc(CNC(=O)c2ccc(-n3nc(OCc4cccc(F)c4)ccc3=O)cc2)cc1	i	0.8
Cc1nc2c(c(=O)[nH]1)CSCC2	i	0.37
CCN(CC)C(=O)c1ccc(-c2nc3cc(NS(=O)(=O)c4ccccc4C)ccc3n2C)cc1	i	0.66
CCOC(=O)C(CCc1ccccc1)NC(C)C(=O)N1Cc2cc(OC)c(OC)cc2CC1C(=O)O (stereo not given)	i	0.42
COc1ccc(NS(=O)(=O)c2cc(-c3noc(C(=O)N4CCCC4)n3)sc2C)c(OC)c1	i	0.02
C#CCOc1cccc(C2CC(=O)Nc3c2cnn3-c2nc3ccccc3s2)c1 (stereo not given)	i	0.6

Ordered by heavy-atom count (highest first): part of the list above.
SMILES	Anaer choline gr	Anaer choline gr early
CN(C)c1ccc(CNC(=O)c2ccc(-n3nc(OCc4cccc(F)c4)ccc3=O)cc2)cc1	i	0.8
COc1ccc(CCNC(=O)CN2C(=O)CCS(=O)c3ccccc32)cc1OC (stereo not given)	i	0.08
COc1cc(C(=O)C2CC(=O)Nc3n[nH]c(-c4ccc(Cl)cc4)c32)ccc1F (stereo not given)	i	0
CCc1nnc(-c2coc(S(=O)(=O)N3CCC(N4CCCCC4)CC3)c2)o1	i	-2.4
COc1ccc(OC)c(NC(=O)c2cc(-c3cccnc3)on2)c1	i	0.63
CCOC(=O)CSc1nc2nc[nH]c2c(=O)[nH]1	i	-0.93

Further structures
SMILES	Anaer choline gr	Anaer choline gr early
CCCn1c(CN2CCN(C)CC2)nc2cc(NC(C)=O)ccc21	i	0.42
CCOc1c(Nc2cccc(OC)c2)c(=O)c1=O	i	-1.2
CC(=O)Nc1ccc(C)cc1S(=O)(=O)NCCC1CCN(C(=O)NC2CCCCC2)CC1	i	-0.12
Cc1cc(=O)n2[nH]c(CN(C(=O)C3CCCCC3)c3ccc(F)cc3)nc2n1	i	-1.3
CCCC(=O)N(c1ccc2oc(C)c(C(=O)OC)c2c1)S(=O)(=O)c1ccc(Cl)cc1	i	0.16
Cc1cccc(OCc2nc(C)c(C(=O)Nc3nc(-c4ccccc4)cs3)s2)c1	i	1.1
CCC1OC(=O)CC(O)C(C)C(O[C@H]2OC(C)C(O[C@H]3C[C@@](C)(O)C(O)C(C)O3)C(N(C)C)C2O)C(CC=O)CC(C)C(=O)C=CC(C)=CC1COC1OC(C)C(O)C(OC)C1OC (stereo not given in full)	i	-2
O=c1[nH]c(N2CCc3ccccc3C2)nc2c(-c3cccc(Br)c3)csc12	i	0.5
Cc1ccc(CNC(=O)c2cccc(C3CCCN(C(=O)NC(C)C)C3)c2)cc1 (stereo not given)	i	-0.3

In a second layout: results already given
mol | Anaer choline gr | Anaer choline gr early
Cc1cccc(OCc2nc(C)c(C(=O)Nc3nc(-c4ccccc4)cs3)s2)c1 | i | 1.1
CCOc1c(Nc2cccc(OC)c2)c(=O)c1=O | i | -1.2
O=c1[nH]c(N2CCc3ccccc3C2)nc2c(-c3cccc(Br)c3)csc12 | i | 0.5
Cc1ccc(CNC(=O)c2cccc(C3CCCN(C(=O)NC(C)C)C3)c2)cc1 (stereo not given) | i | -0.3
CCCC(=O)N(c1ccc2oc(C)c(C(=O)OC)c2c1)S(=O)(=O)c1ccc(Cl)cc1 | i | 0.16

A portion from further up, for reference:
SMILES	Anaer choline gr	Anaer choline gr early
O=c1[nH]c(N2CCc3ccccc3C2)nc2c(-c3cccc(Br)c3)csc12	i	0.5
Cc1ccc(CNC(=O)c2cccc(C3CCCN(C(=O)NC(C)C)C3)c2)cc1 (stereo not given)	i	-0.3

Only part of the results is shown (hit frequency here may not be typical).
